Source: PubChem (several laboratories)
YopH inh – YopH tyrosine phosphatase inhibitors, primary screen, biochemical, fluorescence Ex485/Em525; inhibition, %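 (about 10 µM by stock and volumes)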; YopH tyrosine phosphatase [Yersinia enterocolitica]; 140,000 tested, 0.16% active;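 active = inhibition of 50% or more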;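 note: controls were vehicle for no effect and minimum signal wells for full effect; inactives centre near -20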
Mtb H37Rv – M. tuberculosis H37Rv growth inhibitors, H37Rv strain (AID 1626) | M. tuberculosis H37Rv growth inhibition; higher % means a stronger effect | 220,000 tested, 0.95% active | inhibition, % at 10 µM, or IC50 in µM where a hit was titrated;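 active = confirmed in a dose series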;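 note: bacteria incubated seven days before Alamar blue readout; 0% = bacteria only wells and 100% = bacteria with antibiotic wells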
Arbovirus inh – antivirals against arbovirus infection, primary screen, cell-based, full library, 10K replicate subset; arbovirus infection cell-based antiviral screen; 200,000 tested, 0.37% active; inhibition, % at 10 µM;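 active = inhibition from about 30%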;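 note: bluetongue infection of BSR cells; cell survival read as ATP light after 72 h; 0% = infected wells without compound and 100% = uninfected wells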
Mtb bLac sens – beta-lactam sensitization of Mtb H37Rv, H37Rv. AID 434955, 2010. M. tuberculosis H37Rv growth with meropenem, percent inhibition; hits of this screen are not shown here. 330,000 tested, 0.27% active. inhibition, % at 25 µM;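 active = about 74% or more and at least 40 points above the plate without the antibiotic, then above 30% in a dose series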;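 note: growth measured after seven days incubation then overnight dye step; 0% = bacteria only wells and 100% = bacteria with antibiotic; twin plates without the antibiotic show which effects depend on it; some results filed as inactive read as strong as hits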
RecA intein inh – Mtb RecA intein splicing inhibitors, primary screen, biochemical, fluorescence, HTS; cell-free RecA intein splicing; inhibition, %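 (about 9 µM by stock and volumes)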; 290,000 tested, 0.75% active; AID 2221, 2009; in the data active = inhibition above about 30%;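 note: 0% = vehicle wells and 100% = reference inhibitor control wells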
Target sequence (P9WHJ3 whole entry, looked up): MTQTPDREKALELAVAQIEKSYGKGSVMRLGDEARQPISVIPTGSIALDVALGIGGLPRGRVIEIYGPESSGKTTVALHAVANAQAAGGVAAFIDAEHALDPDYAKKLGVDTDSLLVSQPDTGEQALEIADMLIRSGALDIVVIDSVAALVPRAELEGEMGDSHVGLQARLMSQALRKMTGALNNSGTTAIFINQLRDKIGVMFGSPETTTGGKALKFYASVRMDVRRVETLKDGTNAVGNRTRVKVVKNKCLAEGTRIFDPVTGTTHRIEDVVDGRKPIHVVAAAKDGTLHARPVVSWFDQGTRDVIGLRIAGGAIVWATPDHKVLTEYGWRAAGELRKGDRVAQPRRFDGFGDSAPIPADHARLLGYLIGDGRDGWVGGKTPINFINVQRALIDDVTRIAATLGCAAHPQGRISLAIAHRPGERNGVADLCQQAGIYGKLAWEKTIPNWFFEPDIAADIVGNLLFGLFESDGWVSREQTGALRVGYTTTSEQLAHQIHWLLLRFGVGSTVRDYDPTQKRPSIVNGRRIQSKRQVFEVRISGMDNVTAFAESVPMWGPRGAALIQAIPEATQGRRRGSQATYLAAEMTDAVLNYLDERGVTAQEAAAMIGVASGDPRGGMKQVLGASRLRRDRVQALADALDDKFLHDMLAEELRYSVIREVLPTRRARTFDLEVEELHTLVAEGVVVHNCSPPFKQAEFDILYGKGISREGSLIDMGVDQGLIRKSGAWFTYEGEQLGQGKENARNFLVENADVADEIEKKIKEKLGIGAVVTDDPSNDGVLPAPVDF
Arbovirus inh repeat – also measured in Arbovirus inh; calls as there; inhibition, %; measured here: 10K subset replicate screen; many hits read low in the repeat;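 first of two repeat runs on a subset; 0% = infected and 100% = uninfected wells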
* = called active by the depositor; x = not tested or not shown. Some of the compounds tested, so the mix of outcomes need not match the whole.

SMILES	YopH inh	Mtb H37Rv	Arbovirus inh	Mtb bLac sens	RecA intein inh	others
O=C1c2ccccc2C(=O)N1CCCc1nc(-c2ccccc2)no1	-31	-1%	2	x	2.5
CC1(C)SC[C@H](C(=O)Nc2cccc(Cl)c2)N1C=O	x	-10%	x	-7	-0.1
O=C1NCCN1Cc1ccc(F)cc1	-9	-5%	7	-5	3.5
COCCCNc1oc(/C=C/c2ccccc2)nc1C#N	x	x	x	1	-3.5
COCCCn1c(=O)c2sccc2n2c(CCCC(=O)NCc3ccc(OC)cc3)nnc12	x	x	x	3	-0.4
COc1ccc(OC)c2c1sc(=NC(=O)c1ccco1)n2C	-39	4%	-4	2	1.7	Arbovirus inh repeat=-6
Cc1ccc(N2CCN(S(=O)(=O)c3cccs3)CC2C)cc1 (stereo not given)	x	x	x	3	4.4
CCOCCOC(=O)C1=C(C)NC(=O)NC1c1ccc2c(c1)OCO2 (stereo not given)	x	x	x	-4	-2.8
C=CCOC(=O)C1=C(C)Nc2[nH]c(=O)[nH]c(=O)c2C1c1cccc(OC)c1 (stereo not given)	-3	-1%	2	x	-0.4
Fc1ccc(-c2cn3cc(C(F)(F)F)cc(Cl)c3n2)cc1	1	5%	-1	46	0.8
Cc1ccc(S(=O)(=O)NC(CC(=O)N2CCc3ccccc32)c2ccco2)cc1 (stereo not given)	-37	0%	2	-5	3.2
CCOC(=O)c1c(NC(=O)COC(=O)CCOc2ccc(OCC)cc2)sc(C(=O)N(C)C)c1C	x	x	x	0	16
COc1ccccc1-c1nnc(NC(=O)CSc2nncn2C)s1	x	18%	3	5	0.3
Cn1cc(C(=O)NC2CCCCCC2)c(=O)c2cc(S(=O)(=O)N3CCCC3)ccc21	-30	0%	-9	3	0.1
CC1Cc2ccccc2N1S(=O)(=O)c1cnc(Cl)c(Br)c1 (stereo not given)	x	-1%	x	-10	4.9
CC1CCN(Cc2c(C(=O)N/N=C/c3ccccc3O)nnn2-c2nonc2N)CC1	x	x	x	4	-4.7
CCS(=O)(=O)NCCc1ccc(OC)c(OC)c1	5	-5%	8	-2	-0.3
COc1ccccc1N1CC(C(=O)OC(C)C(=O)N2CCCc3ccccc32)CC1=O (stereo not given)	-34	x	0	-2	-1.8
O=C(NCc1ccc2c(c1)OCO2)c1ccc(S(=O)(=O)NCC2CCCO2)cc1 (stereo not given)	-5	-8%	9	14	-2.4
Cc1ccccc1-n1c(=O)c2ccccc2n2nnnc12	-15	-9%	-3	-6	-1.9
O=C(NCCC1CCCCN1S(=O)(=O)c1ccc(F)cc1)C(=O)NC1CCCC1 (stereo not given)	x	x	x	-8	1.2
CCN1CCN(C(=O)CN(c2cccc(Br)c2)S(=O)(=O)c2ccccc2)CC1	-29	-9%	1	0	0.0
COc1ccc(Nc2nc(-c3ccccc3)nc3ccccc23)c(OC)c1	x	11%	10	8	1.6
Clc1ccc(C[n+]2cc(-c3ccccc3)n3c2CCCCC3)c(Cl)c1	x	10%	4	20	0.6
O=C(COn1nnc2ccc(C(F)(F)F)cc21)Nc1c(Cl)cccc1Cl	-25	2%	11	6	-1.4
Next section
SMILES	YopH inh	Mtb H37Rv	Arbovirus inh	Mtb bLac sens	RecA intein inh	others
CCCCOC(=O)Nc1ccc(OC)cc1S(=O)(=O)N1CCOCC1	2	0%	-2	-4	3.0
CCOC(=O)C1CCN(C(=O)CCN2C(=O)C3C4C=CC(C4)C3C2=O)CC1 (stereo not given)	-22	-4%	1	-7	-0.4
O=C(NC1CCCC1)C(c1ccsc1)N(CCc1ccccc1)C(=O)Cc1cccs1 (stereo not given)	-25	-9%	5	6	-2.1
CCN(CC(=O)Nc1c(F)cccc1F)C(=O)COc1ccc2c(c1)CCC2	x	x	x	2	-2.3
C/C=C/C(=O)OCC(=O)Nc1ccc(F)cc1Cl	10	-2%	1	27	-5.7
O=C1OCC/C1=C\c1ccccc1	-20	0%	4	-1	0.5
Cc1ccc(OC(=O)c2cccc([N+](=O)[O-])c2)c(-n2nc3ccccc3n2)c1	-26	6%	4	11	9.3
Cc1nnc(N2C(=O)C(=O)/C(=C(/O)c3ccc4c(c3)OCCO4)C2c2ccc(F)cc2)s1 (stereo not given)	x	x	x	1	1.2
CC(C)(C)C1CCC(=NNC(=O)C(=O)NCc2cccnc2)CC1 (stereo not given)	x	5%	1	-1	1.2
CC(=O)c1ccc(Sc2ccccn2)c([N+](=O)[O-])c1	x	2%	x	3	-2.5
CSc1nc(=S)n(Cc2ccccc2)c(C)c1C(C)=O	-33	1%	-3	-8	7.6
CCS(=O)(=O)N1CCC(C(=O)NCc2ccccn2)CC1	-24	-3%	7	2	-2.5
CC(C)Cc1n[nH]c(=O)c2c1nnn2Cc1ccccc1F	x	x	x	-7	1.7
NCCCC[C@H]1CNC(=S)N1CC1CCCCC1	x	-6%	0	-9	-1.2
O=C(CSc1nncc2ccccc12)Nc1cccc(C(=O)O)c1	x	6%	x	0	-0.9
Cc1cc(=O)n2nc(N3CCC(C(=O)NCCc4ccc(Cl)cc4)CC3)sc2n1	x	x	x	3	-2.5
CN(C)C(CNC(=O)c1cccc(S(=O)(=O)N(C)C)c1)c1ccccc1 (stereo not given)	6	-6%	3	8	0.6
COc1cc(C=O)ccc1OCCCOc1ccc([N+](=O)[O-])cc1	7	13%	11	1	-0.5
O=C(N/N=C/c1ccc(Br)o1)/C(=C/c1ccc([N+](=O)[O-])cc1)NC(=O)c1ccccc1	-35	-4%	-2	3	9.8
Cc1oc(-c2ccccc2)[n+]([O-])c1C	-32	1%	-2	-5	-2.1
Fc1ccc(Nc2ccnc(Nc3ccc(F)cc3)n2)cc1	-18	25%	14	11	4.9
O=C(COC(=O)CCC(=O)c1cccs1)Nc1ccc(Cl)cn1	0	-4%	6	-12	-1.1
CCC(=O)N1CCN(c2ccccc2NC(=O)Cc2ccc(Cl)cc2)CC1	17	4%	3	2	1.3
CN1C(=O)C(Cc2nc3ccccc3c(=O)n2-c2ccccc2)c2ccccc21 (stereo not given)	-10	-8%	-3	-8	3.2
COC(=O)NC1(C(F)(F)F)C(=O)Nc2c1c(=O)n(C)c(=O)n2C (stereo not given)	x	3%	-1	-1	-0.3

2 compounds picked at random from those above:
SMILES	YopH inh	Mtb H37Rv	Arbovirus inh	Mtb bLac sens	RecA intein inh	others
NCCCC[C@H]1CNC(=S)N1CC1CCCCC1	x	-6%	0	-9	-1.2
CN(C)C(CNC(=O)c1cccc(S(=O)(=O)N(C)C)c1)c1ccccc1 (stereo not given)	6	-6%	3	8	0.6

Additional records
SMILES	YopH inh	Mtb H37Rv	Arbovirus inh	Mtb bLac sens	RecA intein inh	others
NS(=O)(=O)c1ccc(NC(=O)COC(=O)c2ccc(Cl)cc2[N+](=O)[O-])cc1	x	6%	x	-2	-1.4
O=C(CN1CCCCCC1)Nc1cccc(Br)c1	-8	-5%	4	-8	-2.0
O=C(CCNS(=O)(=O)c1c(Cl)cccc1Cl)OCC(=O)c1ccccc1F	-28	1%	4	-2	2.5
CCc1cc(=O)oc2cc(C)cc(OC(C)C(=O)NCCCN3CCOCC3)c12 (stereo not given)	x	x	x	6	-1.6
Cc1ccc(C(=O)Nn2cnnc2)cc1Cl	x	x	x	-8	-1.5
COC(=O)c1ccn(C(=O)c2ccc(Cl)cc2)n1	-14	x	0	-5	-6.1
Cc1c2cnn(CC(=O)N3CCN(c4ncccn4)CC3)c(=O)c2c(C)n1Cc1ccc(F)cc1	-17	-3%	3	-4	0.6
CN1CCN(C2=C(Cl)C(=O)C(c3cnc(N4CCCCC4)s3)=C(Cl)C2=O)CC1	33	-2%	-32	-5	83*
C[C@@H]1CCC2[C@](C)(CO)[C@@H](O)CC[C@]2(C)[C@@]12C[C@](CO)(CC(=O)O)CO2 (stereo not given in full)	x	x	x	-7	-1.7
O=C(NC1CCCC1)c1cc(S(=O)(=O)N2CCCC2)ccc1Cl	x	x	x	-6	-2.1
COc1cc(NC(=O)C(C)Oc2ccccc2)cc(OC)c1 (stereo not given)	18	-4%	-10	3	0.7
O=C(NCCCN1CCC(Cc2ccccc2)CC1)C1CCN(S(=O)(=O)N2CCC3(CC2)OCCO3)CC1	x	-4%	-1	3	0.8
CCc1nnc(NC(=O)CSc2ccc(-c3nc4ccccc4[nH]3)cn2)s1	-18	-3%	0	7	-2.0
O=C(Nc1ccccc1)NC1CC2CCC(C1)N2 (stereo not given)	-4	-12%	-3	6	-1.6
NS(=O)(=O)c1ccc(CCNC(=O)c2ccc(S(=O)(=O)N3CCCCC3)cc2)cc1	2	0%	5	11	-5.7
CCOC(=O)C(=CNc1ccc(OC)cc1[N+](=O)[O-])C(=O)OCC	x	-5%	x	3	1.5
CC1(C)CC2(CC(c3ccccc3)Oc3cc(O)ccc32)NC(=S)N1 (stereo not given)	-11	6%	11	4	3.0
COc1ccc(C(=O)NNC(=O)CSc2nnc(C3CC3)n2C)cc1	x	x	x	-2	2.7
O=C(CCCOc1ccccc1)NC(=S)Nc1ccccc1	x	6%	3	3	-1.3
COc1ccc(CCNCc2c(OC)ccc3ccccc23)cc1OC	x	x	x	-9	-5.5
CC(C)C(OC(=O)c1ccco1)C(=O)NC1CCCC1 (stereo not given)	x	x	x	-8	-2.3
CC(C)=CCC/C(C)=C/COc1ccc2ccc(=O)oc2c1	x	23%	4	13	2.0
O=C1/C(=C/c2ccco2)Cc2ccccc21	-34	-5%	14	-2	0.9
COc1ccc(NC(=O)c2ccco2)cc1NC(=O)c1ccco1	-29	-3%	-3	-1	-4.0
O=C(NCc1cn2ccccc2n1)C1CCC(=O)N(Cc2ccccc2F)C1 (stereo not given)	x	x	x	2	-6.5
Later entries:
SMILES	YopH inh	Mtb H37Rv	Arbovirus inh	Mtb bLac sens	RecA intein inh	others
CC(C(=O)NC1CCCCCC1)N(c1ccccc1)S(C)(=O)=O (stereo not given)	11	-17%	-1	9	1.2
CC/C(=N/Nc1ccc(Cl)cc1)c1cnnc(SC)n1	-16	54%	-6	-3	-12
CC1(C)Cc2c(c(-c3ccccc3)nc(N3CCOCC3)c2C(N)=O)CO1	-24	-8%	-4	2	-0.2
CC(C)/C=C1\CC/C(=C\c2cccnc2)C1=O	x	-1%	-30	40	0.3
N#Cc1c(/N=C/c2cccnc2)sc2c1CCCC2	x	2%	x	9	-5.8
Fc1ccccc1N1CCN(CCCc2ccccc2)CC1	x	x	x	0	0.1
COc1ccc(-c2[nH]ncc2/C=N\NS(=O)(=O)c2ccccc2)cc1OC	-18	x	0	1	-1.3
COc1ccc(CNC(=S)N/N=C/c2ccncc2)cc1	-11	-5%	9	4	-1.8
O=C(NCc1c(O)ccc2ccccc12)c1ccccc1	x	x	x	10	-1.2
COc1ccc(OC)c(C(=O)COC(=O)CNC(=O)C2CCCCC2)c1	-31	-2%	2	1	-1.5
CC(C)(C)S(=O)(=O)c1cnc2c(-c3ccc(F)cc3)cnn2c1N	-27	-5%	-9	-1	-1.6
CCOC(=O)C1CCCN(C(=O)c2sc3nc(C)nc(N4CCOCC4)c3c2C)C1 (stereo not given)	-25	3%	7	-5	-1.6
Cc1c(NC(=O)Nc2ccc(F)cc2)c(=O)n(-c2ccccc2)n1C	x	x	x	3	-0.8
Cc1cccc(NN=C2c3ccccc3-c3ccccc32)c1	-11	1%	2	12	4.4
CC(=O)c1c(C)oc2ccc(NS(=O)(=O)c3cccs3)cc12	x	-5%	3	1	1.9
Cc1c(NC(=O)c2ccccc2NC(=O)COc2ccccc2)cccc1C(=O)O	x	x	x	10	0.7
Cc1ccc(OCC(=O)Nn2cnnc2)c(Br)c1	-22	-10%	2	-1	-7.9

Twelve structures from above, sorted by number of heavy atoms, high to low.
SMILES	YopH inh	Mtb H37Rv	Arbovirus inh	Mtb bLac sens	RecA intein inh	others
Cc1c(NC(=O)c2ccccc2NC(=O)COc2ccccc2)cccc1C(=O)O	x	x	x	10	0.7
COc1ccc(-c2[nH]ncc2/C=N\NS(=O)(=O)c2ccccc2)cc1OC	-18	x	0	1	-1.3
COc1ccc(OC)c(C(=O)COC(=O)CNC(=O)C2CCCCC2)c1	-31	-2%	2	1	-1.5
Cc1c(NC(=O)Nc2ccc(F)cc2)c(=O)n(-c2ccccc2)n1C	x	x	x	3	-0.8
CC(C)(C)S(=O)(=O)c1cnc2c(-c3ccc(F)cc3)cnn2c1N	-27	-5%	-9	-1	-1.6
CC(C(=O)NC1CCCCCC1)N(c1ccccc1)S(C)(=O)=O (stereo not given)	11	-17%	-1	9	1.2
CC(=O)c1c(C)oc2ccc(NS(=O)(=O)c3cccs3)cc12	x	-5%	3	1	1.9
COc1ccc(CNC(=S)N/N=C/c2ccncc2)cc1	-11	-5%	9	4	-1.8
CC/C(=N/Nc1ccc(Cl)cc1)c1cnnc(SC)n1	-16	54%	-6	-3	-12
N#Cc1c(/N=C/c2cccnc2)sc2c1CCCC2	x	2%	x	9	-5.8
Cc1ccc(OCC(=O)Nn2cnnc2)c(Br)c1	-22	-10%	2	-1	-7.9
CC(C)/C=C1\CC/C(=C\c2cccnc2)C1=O	x	-1%	-30	40	0.3
